NS1 inh: influenza NS1 inhibition; Potency, µM (titrated, usually from 46.1 µM), without a hit: top-dose activity, positive = more growth; AID 2326; hit rate 0.4% among 270,000; S. cerevisiae slowed by influenza A NS1, growth recovery by OD600; active means well fitted rising curve with a large enough effect; inconclusive means small, poorly fitted or top-dose-only effect; inactive means no such curve, though single readings can be large or run the other way; also: nearly all actives have a fitted effect of over 50% in size
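Compounds were scored for reversing the slow growth caused by influenza A NS1 in S. cerevisiae, measured by optical density at 600 nm. Assay medium contained 2% galactose at pH 6.0; NS1-free yeast of the same strain were the positive control.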
SARS PLP yeast: inhibitors of SARS-CoV papain-like protease in yeast; S. cerevisiae expressing SARS-CoV PLpro, growth rescue; control for the full effect not named in the record; Potency, µM (series often up to 32.9 µM), without a hit: top-dose activity, positive = growth rescue; hit rate 0.19% among 330,000; AID 485353; active means well fitted rising curve with a large enough effect; inconclusive means small, poorly fitted or top-dose-only effect; inactive means no such curve, though single readings can be large or run the other way; also: 0% is about no effect; nearly all actives have a fitted effect of over 55% in size; growth read by luminescence after 48 h
MARV entry inh: Marburg virus entry inhibition. AID 540276. Potency, µM (highest dose often 37.8 µM), inactives show at the highest dose activity change, negative = inhibition, most hits filed as inhibitors. hit rate 1.8% among 300,000. Marburg virus pseudotyped entry inhibition, cell reporter; control for the full effect not named in the record; about a third of the inactives were read at about 46 µM; active = well fitted inhibition curve with a large enough effect; inconclusive = small, poorly fitted or top-dose-only effect, or effect the other way; inactive = flat fitted curve, though single readings scatter; tested in HEK293 cells; about a fifth of its hits are not listed in these tables; also: % is scaled to controls: 0 for no effect and ±100 for the full control effect; luciferase read-out
StopGo reporter: FMDV 2A StopGo reporter, luciferase signal | human cells with a luciferase reporter of 2A StopGo recoding; control for the full effect not named in the record | Potency, µM (titrated, usually from 57.9 µM), without a hit: at the top dose signal change, negative = less light | hit rate 1.2% among 410,000 | AID 1159524; active = well fitted falling curve with a large enough effect; inconclusive = small, poorly fitted or top-dose-only effect; inactive = no such curve, though single readings can be large or run the other way; tested in HEK293T cells; also: % is scaled to controls: 0 for no effect and ±100 for the full control effect; nearly all actives have a fitted effect of over 45% in size; luciferase light after 4 h
RE007 growth inh: less growth of the S. pombe RE007 Vpr strain; S. pombe RE007 Vpr strain, BacTiter-Glo ATP luminescence, 24 h; control for the full effect not named in the record; AID 651644; hit rate 0.21% among 360,000; Potency, µM (doses to about 92.2 µM), inactives show at the top dose activity change, negative = less growth; active = well fitted falling curve with a large enough effect; inconclusive = small, poorly fitted or top-dose-only effect; inactive = no such curve, though single readings can be large or run the other way;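 also: % is scaled to controls: 0 for no effect and ±100 for the full control effect; nearly all actives have a fitted effect of over 50% in size; the assay follows cell death caused by Vpr and the record does not say whether a fall means rescue or toxicity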
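Fission yeast strain RE007, carrying one chromosomally integrated HIV-1 vpr copy, was seeded at OD 0.01 in PMG+AL medium with 23 nL pinned compound. After 24 h at 30 °C and 99% humidity, viability was read by BacTiter-Glo luminescence.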
Cruzain Triton: cruzain (T. cruzi) inhibition with detergent; purified cruzain, Z-FR-AMC fluorescence, 0.01% Triton; Potency, µM, for inactives: max response, negative = inhibition, actives largely listed as inhibitors; AID 1478; hit rate 0.43% among 200,000;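 also: plate controls were neutral wells for no effect and buffer without enzyme for full effect; nearly all actives have a fitted effect of over 40% in size; top concentration of the series not given in the record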
Target sequence (P25779 123-467 limits assumed): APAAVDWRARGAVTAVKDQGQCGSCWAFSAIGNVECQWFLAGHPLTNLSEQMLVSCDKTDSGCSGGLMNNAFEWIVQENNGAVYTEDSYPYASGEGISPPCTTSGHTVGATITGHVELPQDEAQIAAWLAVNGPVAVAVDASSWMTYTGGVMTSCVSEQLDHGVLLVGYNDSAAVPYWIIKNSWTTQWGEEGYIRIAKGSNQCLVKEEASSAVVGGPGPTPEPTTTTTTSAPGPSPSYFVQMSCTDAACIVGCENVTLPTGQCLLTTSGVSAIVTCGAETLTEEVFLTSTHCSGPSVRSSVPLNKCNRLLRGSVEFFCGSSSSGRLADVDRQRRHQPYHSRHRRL
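Enzyme 1.5 nM, Z-FR-AMC 2 uM, NaOAc 100 mM pH 5.5, DTT 5 mM, Triton X-100 0.01%; 15 min RT compound preincubation; kinetic ex360/em450, 60 s delta.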
Cruzain inh noDet: inhibitors of Trypanosoma cruzi cruzain without detergent; P25779; purified cruzain, Z-FR-AMC fluorescence, no detergent; Potency, µM, inactives show max response, negative = inhibition, most hits filed as inhibitors; hit rate 2.3% among 200,000; AID 1476;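 also: plate controls were enzyme without inhibitor for no effect and buffer without enzyme for full effect; nearly all actives have a fitted effect of over 40% in size; top concentration of the series not given in the record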
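Purified cruzain at 1.5 nM, pre-incubated 15 min with compound at room temperature in 100 mM sodium acetate pH 5.5, 5 mM DTT, 0.00005% Triton X-100. Reaction started with 2 uM Z-FR-AMC; AMC fluorescence increase over 60 s gives rate.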
LASV entry inh: Lassa virus entry inhibition. hit rate 1.2% among 300,000. Lassa virus pseudotype entry inhibition, cell reporter; control for the full effect not named in the record. Potency, µM (highest dose often 37.9 µM), for inactives: at the highest dose activity change, negative = inhibition, most hits filed as inhibitors; active means well fitted inhibition curve with a large enough effect; inconclusive means small, poorly fitted or top-dose-only effect, or effect the other way; inactive means flat fitted curve, though single readings scatter; tested in HEK293 cells; also: % is scaled to controls: 0 for no effect and ±100 for the full control effect; nearly all actives have a fitted effect of over 50% in size; luciferase read-out
An asterisk follows results filed as active; ? = inconclusive; . = not tested or not shown; & = joins results of further samples; ! = repeats disagree; [ ] = another dose, or the depositor's remark. Unless noted, calls follow the shape of the dose curve; as a rule, active = well fitted curve in the direction sought with a large enough effect; inconclusive = small, poorly fitted or top-dose-only effect, or another doubt; inactive = no such curve, though single readings can be large; an effect the other way counts as inactive or inconclusive. Potency is read from the fitted curve at half-maximal effect.

SMILES	NS1 inh	SARS PLP yeast	MARV entry inh	StopGo reporter	RE007 growth inh	Cruzain Triton	Cruzain inh noDet	LASV entry inh
CCn1nc(C)c(/C=N\NC(=O)c2cccc(OC)c2)c1C	10%	-16%	7%	17%	-6%	-3.2%	0%	24%
Cc1sc(NC(=O)Cc2ccc3c(c2)OCO3)nc1-c1ccc2c(c1)CCN2C(=O)c1cccc(F)c1	?	14%	?	?	-21%	-1.5%	7.9µM*	1%
CCOC(=O)C1CCC(CN(Cc2ccc(OC)cc2)S(=O)(=O)c2ccc(F)c(C(=O)Nc3c(C)cccc3C)c2)CC1 (configuration not stated)	.	.	.	?	.	0.3%	-4%	5%[46.1 µM]
Cc1nc2sc(-c3ccccc3)cc2c(=O)n1-n1cccc1	-15%	-6%	?	-16%	-13%	-11%	3%	?
CCOC(=O)c1ccccc1NC(=O)CN(c1ccccc1)S(=O)(=O)N(C)C	-37%	-1%	-10%	.	0%	-4.7%	19%	?
Cc1c(CNCCCc2ccccc2)c(C(=O)O)c(C)n1Cc1cccc(Cl)c1	.	.	?	4%	.	-4.1%	13%	-3%[46.1 µM]
C=CCn1c(=O)c2ccccc2n2c(SCc3c(C(=O)OCC)oc4ccccc34)nnc12	-1%	-2%	-3%	23%	7%	4.2%	8%	?
CC(C)(C)c1ccc(NC(=O)CC2(C(F)(F)F)OCCO2)cc1	-5%	0%	18%	.	13%	2.5%	-3%	?
Cc1c(NC(=O)COc2ncnc3c(Cl)cc(Cl)cc23)c(=O)n(-c2ccccc2)n1C	-5%	?	1%	9%	-6%	0.4%	4%	13%
Cc1ccc(C)c(N2CCN(S(=O)(=O)c3cn(C)c(C)n3)CC2)c1	.	.	.	6%	.	-0.4%	12%	7%[46.1 µM]
CSc1ccc(CCNC(=O)CCc2c(C)nc3cc(-c4ccccc4)nn3c2C)cc1	.	.	2%[46.1 µM]	-13%	.	0.6%	7%	-16%[46.1 µM]
COc1cc2c(cc1OC)CN(C1CC(=O)N(c3c(C)cccc3C)C1=O)CC2 (configuration not stated)	.	-11%	?	-21%	-25%	.	.	0%
O=C(NNC(=S)Nc1ccc(Br)cc1)c1ccccc1	-14%	0%	?	44%[activator]	13%	.	.	34%[46.1 µM]
Cc1c(C)n(CC(O)CN2CCN(C)CC2)c2ccccc12 (configuration not stated)	-8%	3%	.	-3%	-9%	.	.	.
CC1=C(C(=O)OCc2ccccc2)C(c2ccccn2)c2c(n(C)c(=O)n(C)c2=O)N1 (configuration not stated)	-10%	-2%	-5%&-27%	-14%&-18%	?	-3.3%	-6%	20%&3%
CCOC(=O)/C(C#N)=C/Nc1ccccc1OC(F)(F)F	-3%	0%	4%	-7%	4%	.	.	9%
Cn1cnnc1SCC(=O)Nc1sccc1C#N	3%	11%	9%	.	11%	-0.3%	-9%	3%
COc1ccc(CSc2nc3ccccc3c(=O)n2CCCN2CCOCC2)cc1F	.	-5%	-29%	-13%	16%	.	.	-15%
CC(=O)c1ccc(N2CCC(c3cc(-c4ccc(Cl)cc4Cl)n[nH]3)CC2)c([N+](=O)[O-])c1	21%	-10%	?	20µM*	-3%	-0.4%	?	?
CCc1nnc(NC(=O)CCC(=O)N2CCN(CCOc3ccc(C)cc3)CC2)s1	-15%	-5%	?	?	14%	6.5%	-1%	-3%
CCOP(=O)(OCC)/C(C#N)=C/c1ccc([N+](=O)[O-])cc1	-5%	-3%	-2%[46.1 µM]	-8%	-16%	.	.	0%[46.1 µM]
COC(=O)C1=C2SCC(=O)N2C(N)=C(C#N)C1	5%	1%	26%	-11%	23%	.	.	-17%
CC(=O)c1c(C)[nH]c(C(=O)Nc2nc(-c3ccc(-c4ccccc4)cc3)cs2)c1C	0%	10%	?	11µM*	.	-2.8%	10µM*	?
O=C(CCCCn1c(=O)[nH]c2ccccc2c1=O)N1CCN(c2ncccn2)CC1	-6%	0%	-29%	-5%	1%	-0.4%	5%	-9%
COc1ccccc1CNC(=O)c1ccc(OCc2c(C)noc2C)c(OC)c1	-6%	.	-11%[46.1 µM]	6%	9%	2.9%	13%	-1%
O=C(NCc1cccc(Cl)c1)c1ccc2c(c1)OCO2	-8%	-8%	10%	61%[activator]	-2%	0.4%	?	16%[14.3 µM]
Cc1cccc(NC(=S)NCCN2CCOCC2)c1C	1%	-18%	?	-22%	-5%	0.6%	3%	8%
CCCN1CCc2cc(O)cc3c2[C@H]1Cc1ccc(O)c(O)c1-3	.	.	35µM*!	-14%	-10%	.	.	-37%
Cc1ccc(Nc2nc(OC(C(F)(F)F)C(F)(F)F)nc(N3CCOCC3)n2)cc1	-1%	0%	1µM*	?	6%	-13%	8%	11%
N#CCC(=O)Nc1sc2c(c1C(N)=O)CCCC2	8.9µM*	11%	.	-6%	5%	-4.4%	7%	.
Cc1cc(C(=O)NCc2cccc(Br)c2)c2c(C)nn(-c3ccccc3)c2n1	.	.	.	-2%	.	-1.7%	6%	24%[46.1 µM]
Nn1c(SCC(=O)Nc2ccc(F)cc2)nnc1C1CCCCC1	2%	-1%	14%	-4%	-4%	3.1%	5%	-1%
O=C(NCc1ccco1)c1ccc(Br)s1	-16%	-6%	4%	32%[activator]	0%	-1.7%	-1%	?
Cc1ccccc1NS(=O)(=O)c1cc(C(=O)Nc2cccc([N+](=O)[O-])c2)ccc1C	5%	-6%	?	-71%	-2%	-6.0%	11%	11µM*
O=C(COC(=O)c1ccc(O)cc1)Nc1ccc2[nH]c(=O)[nH]c2c1	.	1%	4%	6%	2%	.	.	12%
CC(=O)NS(=O)(=O)c1ccc(NC(=O)c2ccccc2F)cc1	2%	6%	4%	7%	8%	5.2%	5%	0%
COc1cccc(CNC(=O)C2CCC(CNc3c(N4CCC(C)CC4)c(=O)c3=O)CC2)c1 (configuration not stated)	-8%	-3%	-9%[46.1 µM]	-5%	-13%	.	.	18%
Cc1nn(CC(=O)NCc2ccc(OC(C)C)cc2)c(=O)c2c(C)n(-c3ccc(Cl)cc3)nc12	.	.	.	?	.	2.4%	-3%	-25%[46.1 µM]
Cc1[nH]n(-c2ccc(Cl)cc2)c(=O)c1/C=N/n1c(C)nc2ccccc2c1=O	-4%	?	16%[46.1 µM]	?	?	1.8%	7%	-1%
Cc1cccc(C)c1NC(=O)c1c(O)c2ccccc2[nH]c1=O	-3%	-1%	.	13%	-12%	.	.	.
N#Cc1nnn(-c2cc(Cl)cc(Cl)c2)c1N	0%	1%	-27%[46.1 µM]	17%	5%	.	.	-13%[46.1 µM]
O=C(N1CCCC1)n1c(Cc2ccccc2)nc2ccccc21	?	8%	?	-1%	-12%	1.6%	-7%	-1%
COc1ccc(NC(=O)c2sc3nc[nH]c(=O)c3c2C)cc1OC	.	.	.	-18%	.	-0.3%	-3%	?
COc1cccc(Oc2nc3ncn(Cc4ccccc4)c3c(=O)n2C)c1	8%	-4%	-8%	-21%	2%	-1.8%	-8%	0%
CCOc1cc(C(=S)N2CCOCC2)ccc1OC	0%	-25%	-3%	.	2%	3.0%	6%	6%
O=C(Nc1n[nH]c(=S)s1)c1ccco1	6%	12%	.	-7%	11%	.	.	.
CCc1nc(N2CCCC(C)C2)c2oc3ccccc3c2n1 (configuration not stated)	-90%	-23%	?	?	-3%	-11%	2%	-27%
CCc1ccc(NC(=O)CSc2ccc3nnc(CCNS(=O)(=O)c4ccc(OC)cc4)n3n2)cc1	.	.	.	3%	.	-3.2%	?	-2%[46.1 µM]
CC(C)C(=O)NC(=S)Nc1ccc(S(=O)(=O)N(C)Cc2ccccc2)cc1	-2%	.	?	-27%	37%	-4.3%	6%	?
Cc1ccc(OCC(=O)N(Cc2ccccc2)c2c(N)n(Cc3ccccc3)c(=O)[nH]c2=O)c(C)c1	.	-9%	1%[46.1 µM]	-4%	3%	.	.	-29%

(cont.)
SMILES	NS1 inh	SARS PLP yeast	MARV entry inh	StopGo reporter	RE007 growth inh	Cruzain Triton	Cruzain inh noDet	LASV entry inh
CCc1cccc(C)c1Nc1c(-c2ccc(SC)cc2)nc2sccn12	.	.	?	10%	.	-6.3%	?	8%[46.1 µM]
COC(=O)c1c(C)cc(OC(C)=O)c(C)c1OC(C)=O	10%	-7%	19%	7%	-15%	3.3%	-2%	-6%
O=C(O)CCC(=O)Nc1cccc(-c2nnc(-c3ccccc3)o2)c1	-19%	2%	.	19%	-10%	.	.	.
CCn1c(SCC(=O)Nc2ccc3c(c2)OCCO3)nnc1C1CC1	2%	-2%	-2%[46.1 µM]	24%	4%	.	.	-6%[46.1 µM]
Fc1ccc(NCc2n[nH]c(=S)n2Cc2ccccc2)cc1	.	2%	-6%[46.1 µM]	-14%	11%	.	.	6%
Cc1oc(-c2cccc(Cl)c2)nc1CN1CCC(C(=O)NCCc2ccc(Cl)cc2)CC1	.	.	2%[46.1 µM]	-4%	.	0.2%	-6%	17%[46.1 µM]
Cc1onc(-c2c(Cl)cccc2Cl)c1C(=O)O/N=C(\C#N)c1ccccc1	-2%	0%	10%	0%	9%	.	.	26%
COC(=O)[C@@]1(Cc2ccc(OC)cc2)[C@H]2c3cc(C(=O)N4CCCC4)n(Cc4ccc(S(C)(=O)=O)cc4)c3C[C@H]2CN1C(=O)c1ccccc1	.	.	.	-16%	7%	2.3%	?	.
CCNC(=O)NS(=O)(=O)c1cnccc1Nc1cccc(Cl)c1	10%	29%	20%	13%	4%	-2.2%	0%	?
O=C(COc1ccccc1)Nc1cc(NC(=O)COc2ccccc2)cc(C(=O)O)c1	6%	-3%	9%	6%	-19%	.	.	?
c1nc(NCC2(N3CCOCC3)CCCCC2)c2ccsc2n1	-1%	-4%	?	?	-11%	-0.2%	-2%	?
Cc1ccc(CNC(=O)C2CCN(S(=O)(=O)c3c(C)noc3/C=C/c3cccs3)CC2)cc1	.	.	4%[46.1 µM]	-22%	.	-4.8%	0%	16%[46.1 µM]
COc1ccc(OC)c(N=c2ssnc2Cl)c1	-107%	0%	11%	-1%	?	-15%	?	-3%

Assay outcomes: PubChem, National Center for Advancing Translational Sciences (NCATS)

Rows were taken by chance. About 4.5% of those tested had a hit in this group.
